miR-21 FLuc = miR-21 reporter, rising signal | HeLa miR-21 FLuc reporter, luciferase, 48 h | 340,000 tested, under 10 active | Potency, µM (series often up to 38.3 µM), without a hit: at the top dose reporter change, positive = more light | AID 2288; active = well fitted rising curve with a large enough effect; inconclusive = small, poorly fitted or top-dose-only effect; inactive = no such curve, though single readings can be large or run the other way;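 also: % of control where 0% means no effect; miR-21 action dims this reporter so a rising signal means less miR-21 action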
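Using DMEM plus 10% FBS, HeLa miR-21-FLuc cells are incubated with test compounds (final up to about 40uM) for 48 hours; firefly luciferase signal is then imaged following reagent-mediated lysis.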
* hit, by the source's call; ? = inconclusive. Only part of the results is shown (hit frequency here may not be typical).

cpd	structure	miR-21 FLuc
1	COc1cccc(C(=O)N(Cc2ccco2)c2ccccn2)c1	-12%
2	CC1=C(C(=O)Nc2ccccc2)C(c2ccc(F)cc2)n2nc(SCc3cc(C)ccc3C)nc2N1 (stereo not drawn)	6%
3	COc1ccc(CNC(=O)c2ccc3nc(-c4ccc(F)cc4)c(-c4ccc(F)cc4)nc3c2)cc1	-1%
4	COc1cc(NC(=O)CC2C(=O)N(c3cccc(C)c3)C(=O)N2Cc2ccc(F)cc2)cc(OC)c1 (stereo not drawn)	25%
5	Cc1cccc(N2CCN(S(=O)(=O)c3ccc(-c4cc(C(F)(F)F)on4)s3)CC2)c1C	3%
6	Cn1c(/C(C#N)=C/c2ccccc2Br)nc2ccccc21	8%
7	COc1cccc(NC(=O)CSc2nc(-c3ccccc3Cl)nc3c2Cc2c(CO)cnc(C)c2O3)c1	-2%
8	COCCn1c(C)cc(O)c(C(c2ccc(Cl)cc2)N2CCN(c3ccccc3)CC2)c1=O (stereo not drawn)	-1%
9	COc1cc(OC)c(NC(=O)c2cc3c(s2)-c2ccc(Cl)cc2SC3)cc1Cl	-20%
10	CCC1Oc2ccccc2N(CC(=O)NCc2cc(OC)ccc2OC)C1=O (stereo not drawn)	-3%
11	Cc1cccc(N2CCN(C(=O)c3cccc(-n4c(C)nc5cccnc54)c3)CC2C)c1 (stereo not drawn)	?
12	CCS(=O)(=O)N1CCc2cc(C(=O)N3CCN(c4ccc(OC)cc4)CC3)ccc21	3%
13	CCOc1cccc(C(=O)Nc2nnc(S(=O)(=O)N(C)c3ccc(C)cc3)s2)c1	-21%
14	Cc1cccc(-c2noc(-c3ccccc3OCC(=O)Nc3ccccc3[N+](=O)[O-])n2)c1	?
15	COc1ccc(CNC(=O)CN(c2cc(C(F)(F)F)ccc2Cl)S(C)(=O)=O)cc1	-5%
16	Cc1cccc(NC(=O)CN2C(=O)C(c3ccccc3)=NC23CCC(C)CC3)c1 (stereo not drawn)	?
17	CN1CCN(C(CNC(=O)c2cccc(F)c2)c2ccc3c(c2)OCO3)CC1 (stereo not drawn)	-1%
18	CCc1ccc(-c2nc(CN3CCCC(C(=O)NCc4ccccc4Cl)C3)c(C)o2)cc1 (stereo not drawn)	26%
19	CCOC(=O)c1c(C)[nH]c(C)c1S(=O)(=O)N(C)CC(=O)N1CCN(c2ccc(Cl)cc2)CC1	1%
20	CN1CCN(CCCNC(=O)c2ccc3nc(Cc4ccccc4)oc3c2)CC1	-5%
21	O=C(CCCCn1c(=O)c2ccccc2n(Cc2ccccc2F)c1=O)NCc1ccc2c(c1)OCO2	-13%
22	CC(=O)c1cccc(NC(=O)Nc2cc3c(cc2N2CCCC2)n(C)c(=O)n3C)c1	-11%
23	Cc1ccccc1CCNC(=O)c1ccc2c(c1)nc1n2CCCCC1	19%
24	Cc1ccc2[nH]c3c(=O)n(CC(=O)N(C)c4cc(Cl)ccc4C)ncc3c2c1	14%
25	CCOc1ccccc1CNC(=O)Cn1nc(C)c2nn(-c3ccc(Cl)cc3)c(C)c2c1=O	-1%

Values in list order from above:
miR-21 FLuc, compounds 9–20 → -20%, -3%, ?, 3%, -21%, ?, -5%, ?, -1%, 26%, 1%, -5%

Arranged by value in miR-21 FLuc (rising): some entries from above.
cpd	structure	miR-21 FLuc
13	CCOc1cccc(C(=O)Nc2nnc(S(=O)(=O)N(C)c3ccc(C)cc3)s2)c1	-21%
21	O=C(CCCCn1c(=O)c2ccccc2n(Cc2ccccc2F)c1=O)NCc1ccc2c(c1)OCO2	-13%
7	COc1cccc(NC(=O)CSc2nc(-c3ccccc3Cl)nc3c2Cc2c(CO)cnc(C)c2O3)c1	-2%
17	CN1CCN(C(CNC(=O)c2cccc(F)c2)c2ccc3c(c2)OCO3)CC1 (stereo not drawn)	-1%
5	Cc1cccc(N2CCN(S(=O)(=O)c3ccc(-c4cc(C(F)(F)F)on4)s3)CC2)c1C	3%
6	Cn1c(/C(C#N)=C/c2ccccc2Br)nc2ccccc21	8%
24	Cc1ccc2[nH]c3c(=O)n(CC(=O)N(C)c4cc(Cl)ccc4C)ncc3c2c1	14%

Next section:
cpd	structure	miR-21 FLuc
26	Cc1ccc(-c2noc(-c3cc(-c4ccc(F)cc4)n[nH]3)n2)cc1	4%
27	COc1cccc(CNC(=O)Cn2c(=O)cc(C)c3c(C)nn(C)c32)c1OC	7%
28	O=C(NCCc1ccccc1)c1ccc(Cn2c(SCc3ccccc3F)nc3cccnc32)cc1	0%
29	COc1ccc(CNC(=O)CCCc2nnc3n(CCC(C)C)c(=O)c4sccc4n23)cc1	-7%
30	CCNC(=O)c1c(NC(=O)c2cc(=O)c3ccc(C)c(C)c3o2)sc2c1CCCC2	6%
31	Cc1cccc(NC(=O)c2ccc3c(O)c(S(=O)(=O)c4ccccc4)c(=O)[nH]c3c2)c1C	-6%
32	CCCCn1cc(S(=O)(=O)c2ccc(OCC)cc2)c(=O)c2cc(OC)c(OC)cc21	-14%
33	CCc1ccc(Nc2ncnc3sc4c(c23)CCCC4)cc1	10%
34	CCOc1ccccc1NC(=O)CN1c2ccccc2S(=O)(=O)c2ccccc21	27%
35	Cc1ccccc1-c1nc(CNC(=O)Nc2ccccc2)c(C)o1	-17%
36	Cc1ccc(O)c(Nc2nc3ccccc3c3nncn23)c1	2%
37	Cc1nn(CC(=O)NCC(C)c2ccccc2)c(=O)c2cc3ccccc3n12 (stereo not drawn)	-2%
38	COc1ccc(NC(=O)c2c(C)oc3ccc(O)c(CN4CCN(Cc5ccccc5)CC4)c23)cc1	24%
39	CCOC(=O)c1ccc2c(c1)N(Cc1cccc(C(F)(F)F)c1)C(=O)c1ccccc1S2(=O)=O	18%
40	COc1ccccc1NC(=O)C1=C(C)Nc2nc3ccccc3n2C1c1cccc(OC)c1OC (stereo not drawn)	0%
41	CCc1ccc(C2=C(C)C(N3CCC(C(=O)NCCc4ccco4)CC3)=NS2(=O)=O)cc1	7%
42	Cc1cccc(C)c1OCC(=O)N(Cc1ccco1)Cc1ccco1	7%
43	CCC(Cc1ccccc1)NC(=O)c1csc2c1CCCCC2 (stereo not drawn)	-2%
44	CCn1cc(C(=O)NCc2ccc(C)cc2)c(=O)c2cc(S(=O)(=O)N3CCC(C)CC3)ccc21	-3%
45	CC(C)CC(=O)n1nc(-c2cccnc2)nc1NCc1ccc(F)cc1	0%
46	Cc1ccc(NC(=O)Nc2nnc(N3CCCC3)s2)c(C)c1	2%
47	Cc1ccc2c(CC(=O)Nc3ccc(S(=O)(=O)N4CCCCC4C)cc3)coc2c1C (stereo not drawn)	-5%
48	COC(=O)c1scc(-c2ccc(C)cc2)c1S(=O)(=O)Nc1ccc(OC(F)(F)F)cc1	-4%
49	Cc1nc2ccccn2c(=O)c1NC(=O)c1ccc(F)c(F)c1	2%
50	Cc1ccc(NC(=O)/C(C#N)=C/c2ccc(C(C)C)cc2)cc1C	-17%

Further records
cpd	structure	miR-21 FLuc
51	Cc1ccc(-n2nc(C)c(C(=O)NCCCN3CCN(c4cccc(Cl)c4)CC3)c2-n2cccc2)cc1	?
52	CCOc1ccc(Nc2nc3cc(Cl)c(Cl)cc3nc2-n2nc(C)cc2C)cc1	0%
53	CCOC(=O)c1c(C)[nH]c(CCC(=O)NCc2ccc(OC)c(OC)c2)c1C	-3%
54	CCC(C(=O)NC1CCCCC1)n1nc(C)c2sc3ccccc3c2c1=O (stereo not drawn)	-41%
55	O=S(=O)(Nc1ccc(-c2ccc(N3CCCC3)nn2)cc1)c1ccc(Cl)cc1	-9%
56	COc1ccc2c(CNC3CCCCCC3)c(C(=O)O)n(Cc3ccccc3F)c2c1	23%
57	CCOC(=O)c1c(S(=O)(=O)N2CCC(C(=O)Nc3ccc(F)cc3F)CC2)c(C)n(C)c1C	0%
58	O=C1CSC2(C(=O)N(Cc3ccccc3F)c3ccccc32)N1c1ccc(F)cc1 (stereo not drawn)	-1%
59	Clc1ccc2nc(-c3ccc(N4CCOCC4)cc3)c(Nc3ccccc3)n2c1	1%
60	COc1cc(-c2nc(-c3cccc(Cl)c3)c(-c3ccccc3)[nH]2)cc(OC)c1OC	?
61	COc1ccc(-c2cnnn2-c2ccc(NC(=O)c3c(F)cccc3F)cc2)cc1	1%
62	COc1ccc(CCNC(=O)c2cn(C)c3ccc(S(=O)(=O)N(C)C)cc3c2=O)cc1OC	-1%
63	COc1ccccc1NC(=O)c1sc2nc3n(c(=O)c2c1C)N=C(c1cccc(Br)c1)CS3	2%
64	Cc1c(C(=O)N(C)Cc2ccccc2)sc2nc(-c3ccc(F)cc3)cn12	29%
65	CCC1=Nc2cc(C(=O)NC(C)c3ccccc3)ccc2Sc2ccc(Cl)cc21 (stereo not drawn)	-7%
66	Cc1ccc(Cl)cc1N1CCN(C(=O)c2cn(C)c3ccc(S(=O)(=O)N(C)C4CCCCC4)cc3c2=O)CC1	-4%
67	CCc1ccccc1NC(=O)C1CCN(S(=O)(=O)c2cn(C)cn2)CC1	-3%
68	CCCCC(=O)OCc1cc(=O)n2nc(C3CC3)sc2n1	-1%
69	Cc1ccc(C(C)C)c(OCC(=O)Nc2cccc(NC(=O)c3ccco3)c2)c1	21%
70	O=S1(=O)CCOCCN1Cc1ccc(Cl)cc1Cl	-8%
71	O=C(NC1CCCCC1)c1cc(Nc2cccc(C(F)(F)F)c2)nc2ccccc12	1%
72	COc1ccc2[nH]cc(CCNC(=O)Nc3cccc(F)c3)c2c1	10%
73	Cc1nc2nc(NC(=O)CC(C)C)[nH]n2c(=O)c1Cc1ccccc1	-9%
74	CC(C)Oc1ccc(CNC(=O)C2CCN(c3nc4ccccc4n(C)c3=O)CC2)cc1	1%
75	COc1ccc(NS(=O)(=O)c2ccc(-c3cnc(C4CC4)o3)cc2)cc1Cl	?

(next part)
cpd	structure	miR-21 FLuc
76	Cc1ccccc1CNCCCSc1nnnn1-c1ccccc1	-9%
77	COc1ccc(Cl)cc1NC(=O)Cn1cc(C(=O)c2ccc(C)cc2)c(=O)c2ccc(C)nc21	2%
78	CCOc1ccc(-n2nc3ccc(NC(=O)c4ccc(C)cc4C)cc3n2)cc1	-9%
79	CCc1cccc(CC)c1NC(=O)c1c(C)oc2ccc(O)c(CN3CCCC3)c12	-11%
80	O=C(CSc1nccn1Cc1ccc(F)cc1)Nc1ccc2c(c1)OCO2	-6%
81	Cc1ccc(CNC(=O)CSc2nc3n[nH]c(C)c3c(=N)n2-c2ccccc2Cl)cc1	-4%
82	CSc1ccc(CNC(=O)Cn2ccc3cc(S(=O)(=O)N4CCCC4)ccc32)cc1	12%
83	Cc1ccc(Cl)cc1N1CCN(C(=O)Cn2cnc3nc4c(cc3c2=O)CCCC4)CC1	20%
84	Cc1cc(C)n(-c2nc3ccccc3nc2Nc2ccc(C(C)C)cc2)n1	-1%
85	O=C(C1CC1)N1CCc2cc(Br)cc(S(=O)(=O)N3CCN(c4ccccc4)CC3)c21	5%
86	CCOC(=O)c1cccc(NC(=O)c2cc(S(=O)(=O)N3CCCC(C)C3)cn2C)c1 (stereo not drawn)	13%
87	Cc1cccc(NC(=O)c2ccc3c(c2)CCN3S(=O)(=O)c2ccccc2)c1C	3%
88	Cc1ccc(-c2nc3ccccn3c2Nc2ccccc2C)s1	-3%
89	CCN(CC)CCN(C(=O)c1ccco1)c1nc2c(C)cccc2s1	-26%
90	COc1cc(C)c(C)cc1S(=O)(=O)Nc1cccc(-c2ccc(N3CCOCC3)nn2)c1	-11%
91	CCOC(=O)c1cccc(NC(=O)C2CCN(c3nnc(C)c4c(C)n(-c5ccccc5)nc34)CC2)c1	0%
92	CCCCOC(=O)c1ccc(OC(=O)c2sc3ncn(Cc4ccccc4Cl)c(=O)c3c2C)cc1	0%
93	Cc1cc(C)n2c(Nc3ccccc3C)c(-c3cccs3)nc2n1	-2%
94	COc1ccc(S(=O)(=O)NCCc2sc(C)nc2C)cc1	0%
95	Cn1c(=O)c2c(nc(SCC(=O)Nc3ccccc3F)n2Cc2ccc(Cl)cc2)n(C)c1=O	-3%
96	CNS(=O)(=O)c1cn(CC(=O)Nc2cccc(C(F)(F)F)c2)cc1S(=O)(=O)NC	-1%
97	Cn1c(-c2ccccc2)cnc1NCc1ccccc1O	-28%
98	CCc1cccc(C)c1NC(=O)c1cc(S(=O)(=O)N2CCOCC2)cn1C	-5%
99	CCc1cnc2c(c1SCC(=O)Nc1ccc(Cl)cc1)c(=O)n(C)c(=O)n2C	-5%
100	CCOC(=O)c1c(SCC(=O)Nc2cc(Cl)cc(Cl)c2)nc(=O)[nH]c1C	-1%

Additional records
cpd	structure	miR-21 FLuc
101	COc1cc2c(cc1OC)n(CC(=O)Nc1ccccc1)c(=O)n1nc(-c3ccccc3)nc21	3%
102	CCCS(=O)(=O)N1CCCC(C(=O)NCCOC)C1 (stereo not drawn)	2%
103	O=C(Cn1cnc2nc3c(cc2c1=O)CCCC3)N1CCN(c2cccc(C(F)(F)F)c2)CC1	-1%
104	O=C1[C@@H]2Cc3c([nH]c4ccccc34)C(c3cccc([N+](=O)[O-])c3)N2C(=O)CN1C1CCN(Cc2ccccc2)CC1 (stereo partly drawn)	23%
105	Cc1cccc(NC(=O)CSC2=Nc3ccccc3C3=NC(CC(=O)NCc4cccs4)C(=O)N23)c1 (stereo not drawn)	-2%
106	O=C(CCn1c(=O)c2sccc2n(Cc2ccc(F)cc2)c1=O)NCc1ccc2c(c1)OCO2	0%
107	CCOc1ccc(NC(=O)c2c(NC(=O)c3cccc(C)c3)sc3c2CCC3)cc1	-1%
108	CCC(=O)N1CCc2cc(S(=O)(=O)NC(Cc3ccccc3)C(=O)Nc3ccc(Cl)cc3)ccc21 (stereo not drawn)	0%
109	CCOc1ccc(CNC(=O)C2CCCN(S(=O)(=O)c3ccc4c(ccn4C)c3)C2)cc1 (stereo not drawn)	12%
110	Cc1ccc(-c2cc(C(=O)OCC(=O)c3ccccc3)c3cccc(Cl)c3n2)cc1	-10%
111	COc1ccc(NC(=O)CSC2=Nc3ccccc3C3=NC(CCC(=O)NCc4cccs4)C(=O)N23)cc1 (stereo not drawn)	5%

From PubChem
